# GIRK2 act: activators of human GIRK2 potassium channels | HEK293-GIRK2 thallium flux, Thallos fluorescence | 63,000 compounds, 0.05% hits | P48051 | calls only for hits at 25 µM;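 active = among the strongest 0.2% of first-round signals and kept after retests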;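 note: first round at about 10 µM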
# Target sequence (P48051 whole entry, looked up): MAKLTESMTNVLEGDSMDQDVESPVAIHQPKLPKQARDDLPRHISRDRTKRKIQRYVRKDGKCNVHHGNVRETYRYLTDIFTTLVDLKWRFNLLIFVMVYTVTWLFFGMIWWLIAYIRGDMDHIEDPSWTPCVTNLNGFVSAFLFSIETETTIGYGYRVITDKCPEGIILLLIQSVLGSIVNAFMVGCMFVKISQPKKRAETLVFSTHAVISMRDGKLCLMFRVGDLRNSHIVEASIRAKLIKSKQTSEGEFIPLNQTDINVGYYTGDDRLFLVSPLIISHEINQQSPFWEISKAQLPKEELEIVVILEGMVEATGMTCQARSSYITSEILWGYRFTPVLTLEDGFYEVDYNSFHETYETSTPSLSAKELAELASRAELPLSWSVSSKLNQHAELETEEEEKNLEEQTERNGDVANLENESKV
# Calls only; i = inactive. An excerpt (hit frequency here may not be typical).
cpd | SMILES | GIRK2 act
1 | COc1ccccc1NC(=O)Cn1c(=O)n(CCCCC(=O)NCC(C)C)c(=O)c2ccccc21 | i
2 | COc1ccc(-c2noc(CSc3nc(-c4ccccn4)cc(=O)[nH]3)n2)c(OC)c1 | i
3 | Cc1ccc(-n2cc(C(=O)N3CCC(NC(=O)CCC4CCCC4)CC3)nn2)cc1 | i
4 | COc1ccc(-c2cc(C(=O)N3CCC(Cn4cnc5cc(C)c(C)cc54)CC3)no2)cc1 | i
5 | CCOC(=O)Cn1c(C)c(C)n2c3c(=O)n(CCC(C)C)c(=O)n(C)c3nc12 | i
6 | Cc1ccc(S(=O)(=O)N(C)CCCCCC(=O)Nc2ccccc2)cc1 | i
7 | COc1ccc(CCNc2oc(-c3ccc(S(=O)(=O)N(C)C)cc3)nc2C#N)cc1 | i
8 | Cc1ccc(-n2cc(C(=O)N3CCC(NC(=O)c4ccc5ccccc5c4)CC3)nn2)cc1 | i
9 | CNc1nn(CC(=O)Nc2ccc(OC)c(OC)c2)c(N)c1-c1nc(-c2ccc(C)cc2)no1 | i
10 | O=C(NCC#CCN1CCOCC1)NC(c1ccccc1)c1ccccc1 | i
11 | O=C(Cn1cc(-c2nc(-c3ccc(Cl)cc3)no2)ccc1=O)NC1CCCCC1 | i
12 | O=C(NCc1cccs1)c1coc(NC(=O)C2CC2)n1 | i
13 | Cc1cccc(-n2c(C)cn3c4c(=O)n(C)c(=O)n(C)c4nc23)c1C | i
14 | O=C(Nc1ccccc1Cl)Nc1ccccc1NC(=O)c1ccccc1C(F)(F)F | i
15 | Cn1cnnc1SCCNC(=O)Cc1csc(Nc2ncccn2)n1 | i
16 | Cc1c(C)n2c3c(=O)n(CC(C)C)c(=O)n(C)c3nc2n1C1CCCCC1 | i
17 | CCC(Sc1nnc(C)c2cnn(-c3ccc(C)c(C)c3)c12)C(=O)OC (stereo not given) | i
18 | CC1CCN(c2nccnc2Oc2ccc(C(=O)NCc3ccc(F)cc3)cc2)CC1 | i
19 | COc1ccc(NC(=O)Cn2ncn3nc(-c4ccc(C)cc4)cc3c2=O)cc1 | i
20 | CCS(=O)(=O)N1CCN(c2cc(Nc3ccccn3)ncn2)CC1 | i
21 | N#Cc1nc(/C=C/c2ccc(F)cc2)oc1N1CCN(C(=O)c2ccc(Cl)cc2)CC1 | i
22 | Cc1nc2ccccc2n1CC1CCN(CC(=O)Nc2ccc3c(c2)OCCO3)CC1 | i
23 | Cc1noc(-c2ccc(NC(=O)CCn3ccc(=O)[nH]c3=O)cc2)n1 | i
24 | Cc1cccc(C)c1N1CCN(S(=O)(=O)c2ccccc2)CC1 | i
25 | O=C(Nc1ccc(-n2cnnn2)cc1)c1ccc(OCc2nc(C3CC3)cs2)cc1 | i
26 | O=C(CSc1nc2c(-c3ccccc3)c[nH]c2c(=O)n1C1CC1)NCCc1ccccc1 | i
27 | C/C=C1\[C@H](O[C@@H]2O[C@H](CO)[C@@H](O)[C@H](O)[C@H]2O)OC=C(C(=O)OC)[C@H]1CC(=O)OC[C@H]1O[C@@H](OCCc2ccc(O)cc2)[C@H](O)[C@@H](O)[C@@H]1O | i
28 | O=C(Nc1cc(N2CCCC2)ncn1)c1ccc(Cn2ccnc2)cc1 | i
29 | NC(=O)c1ccccc1NC(=O)c1cc2n(n1)CCCO2 | i
30 | CCc1ccccc1Sc1nccn2c(=O)n(CC(=O)Nc3c(C)cccc3C)nc12 | i
31 | O=c1ccn(-c2cccc(Br)c2)nc1-c1nc(-c2cccc(Br)c2)no1 | i
32 | COc1cccc(CNC(=O)C(=O)NCCC2CCCCN2S(=O)(=O)c2ccc(Cl)cc2)c1 (stereo not given) | i
33 | O=C(N1CCC(Oc2cnccn2)CC1)C1(c2ccc(Cl)cc2)CCCC1 | i
34 | COc1ccccc1-c1coc2cc(OC(=O)N3CCOCC3)ccc2c1=O | i
35 | CCOc1ccccc1-c1nc(Cn2ccn3nc(-c4ccc(C)cc4)cc3c2=O)c(C)o1 | i
36 | COc1cc[nH]c1/C=C1\C(=O)Nc2ccc(F)c(C#C[C@@H](O)[C@@H](N)[C@@H](C)O)c21 | i
37 | O=C(NCC#CCOc1ccc2c(c1)OCO2)C(c1ccccc1)c1ccccc1 | i
38 | COc1ccc(Cn2nc3ccc(-c4ccc(Cl)cc4)nn3c2=O)cc1F | i
39 | CN(C)S(=O)(=O)c1ccc(C(=O)NCC2CCN(c3cnccn3)CC2)cc1 | i
40 | COCCOC(=O)c1c(C)oc2ccc(OC(=O)c3cccc([N+](=O)[O-])c3)cc12 | i
41 | CC(Cn1nc(-c2ccco2)ccc1=O)C(=O)NCc1cccs1 (stereo not given) | i
42 | Cc1nn(C2CCS(=O)(=O)C2)c(C)c1N1CCN(C(=O)c2ccco2)CC1 (stereo not given) | i
43 | CC(C)NC(=O)c1ccc(-c2ccc(Cl)c(C(F)(F)F)c2)o1 | i
44 | O=C(Nc1nc2c(s1)CN(C(=O)CCSc1ccccc1)CC2)c1cccs1 | i
45 | O=C(NC1C2CC3CC(C2)CC1C3)c1cccnc1Cl (stereo not given) | i

# Overlap with the part before: 2 compounds; new compounds follow.
cpd | SMILES | GIRK2 act
44 | O=C(Nc1nc2c(s1)CN(C(=O)CCSc1ccccc1)CC2)c1cccs1 | i
45 | O=C(NC1C2CC3CC(C2)CC1C3)c1cccnc1Cl (stereo not given) | i
46 | O=C(CSc1ncnc2sc3c(c12)CCCCC3)NCCc1ccccc1 | i
47 | Cc1nc(-c2ccc(N3CCN(C(=O)c4cc(-c5ccc(F)cc5)nn4C)CC3)nc2)no1 | i
48 | CCOc1ccc(NC(=O)c2cn(-c3cc(N4CCC(C)CC4)ncn3)cn2)cc1 | i
49 | O=C(NCCOc1cccc2cccnc12)C1CCCC1 | i
50 | CCCCC[C@H](O)/C=C/[C@H]1[C@H](O)CC(=O)[C@@H]1CCCCCCCCC(=O)O | i
51 | O=C(NCc1ccco1)c1nnn(-c2ccc(Cl)cc2)c1-c1cccnc1 | i
52 | O=C(NNC(=O)c1cccn(Cc2ccc(F)cc2)c1=O)c1ccco1 | i
53 | CCOC(=O)CNC(=O)CSc1nnc(C(C)C)c2cnn(-c3ccc(C)c(C)c3)c12 | i
54 | COc1ccc(Br)c(C(=O)N2CC(c3nc(-c4ccco4)no3)C2)c1 | i
55 | Cc1nc(-c2cccs2)sc1CNC(=O)C1CC(=O)N(c2cccc(F)c2)C1 (stereo not given) | i
56 | Cn1nc(C2CCN(CC(=O)Nc3cc(C(F)(F)F)ccc3Cl)CC2)n(-c2ccccc2)c1=O | i
57 | O=S(=O)(NCc1cc(-c2cccs2)n(C2CCCC2)n1)c1ccc(F)cc1F | i
58 | CSc1ccc(NC(=O)CCS(=O)(=O)Cc2ccccc2)cc1 | i
59 | Cc1ccc(NC(=O)CSc2nccn2-c2ccc(C(=O)NCc3ccco3)cc2)c(Cl)c1 | i
60 | CN(C)C(=O)Cc1ccc(NC(=O)c2cc3ccccc3oc2=O)cc1 | i
61 | COc1cccc2c1OC1(CCN(C)CC1)N1N=C(c3ccco3)CC21 (stereo not given) | i
62 | CSc1nnc(-c2ccc(S(C)(=O)=O)cc2)o1 | i
63 | O=C(c1ccc(Cn2ccnc2)cc1)N1CCC(Oc2ccc(C(F)(F)F)cn2)CC1 | i
64 | Cc1cccc2sc(OC3CN(C(=O)Nc4ccccc4C(F)(F)F)C3)nc12 | i
65 | Cn1nc(-c2cccs2)cc1C(=O)NCCc1c[nH]c2ccccc12 | i
66 | O=c1c2ccccc2c(-c2nc(-c3cccnc3)no2)cn1-c1ccc(Cl)cc1 | i
67 | COc1ccc(-c2csc(NC(=O)NC3CCCC3)n2)cc1 | i
68 | CC(C)(C)OC(=O)Cn1cccc(S(=O)(=O)N2CCCCCC2)c1=O | i
69 | CC(=O)NCC(=O)NC1CCN(C(=O)c2cc(-c3ccc(C)c(C)c3)n[nH]2)CC1 | i
70 | CCc1ccc(NCCn2c(C)cn3c4c(=O)[nH]c(=O)n(C)c4nc23)cc1 | i
71 | O=C(Nc1nnc(C2CC(=O)N(c3ccccc3)C2)o1)C1=COCCO1 (stereo not given) | i
72 | CCOCCn1c(N2CCN(c3ccc(OC)cc3)CC2)nc2c1c(=O)[nH]c(=O)n2C | i
73 | CC(C)CCCCCCC/C=C/C(=O)O | i
74 | O=c1ncc(F)c[nH]1 | i
75 | O=C(NCC1CCCO1)C(=O)Nc1ccc(Cl)cn1 (stereo not given) | i

# Some of the entries so far, with each value named:
70. CCc1ccc(NCCn2c(C)cn3c4c(=O)[nH]c(=O)n(C)c4nc23)cc1
- GIRK2 act = i

71. O=C(Nc1nnc(C2CC(=O)N(c3ccccc3)C2)o1)C1=COCCO1 (stereo not given)
- GIRK2 act = i

72. CCOCCn1c(N2CCN(c3ccc(OC)cc3)CC2)nc2c1c(=O)[nH]c(=O)n2C
- GIRK2 act = i

73. CC(C)CCCCCCC/C=C/C(=O)O
- GIRK2 act = i

# More structures follow.
cpd | SMILES | GIRK2 act
76 | Cc1ccc2nc(C)c(NC(=O)NCc3ccccc3)c(=O)n2c1 | i
77 | Cc1ccccc1-c1noc(-c2nnn(-c3ccc(Br)cc3)c2C)n1 | i
78 | COc1ccc(-n2c(-c3cccs3)nc3nc4ccccc4nc32)cc1OC | i
79 | O=C(Nc1nc(-c2cccnc2)cs1)C1CCN(S(=O)(=O)c2ccc(F)cc2)CC1 | i
80 | Cc1cc(C(=O)N2CC(C(=O)Nc3ccc(F)c(Cl)c3)C2)no1 | i
81 | CCOc1ccc(OCC)c(NC(=O)c2n[nH]nc2Nc2ccc(F)cc2)c1 | i
82 | COc1ccc(C2CCN(C(=O)Nc3ccccc3Cl)C2)cc1 (stereo not given) | i
83 | CC(=O)c1ccc(NC(=O)CSc2nccc(N3CCCCC3)n2)cc1 | i
84 | COc1nn(C)cc1C(=O)N1CCN(c2c(C)nn(C3CCS(=O)(=O)C3)c2C)CC1 (stereo not given) | i
85 | CCc1cc(=O)[nH]c(-n2nc(C3CC3)cc2NC(=O)CCC2CCCC2)n1 | i
86 | Cc1cc(C)cc(NC(=O)Cn2nc(-c3ccc(F)cc3)c3sc(N4CCOCC4)nc3c2=O)c1 | i
87 | O=C(c1ccc(Cn2ccnc2)cc1)N1CCN(C2CCCCC2)CC1 | i
88 | O=C(NCC1CCN(C2CCCC2)CC1)C(=O)Nc1cccnc1 | i
89 | Cc1nn(C2CCS(=O)(=O)C2)c(C)c1N1CCN(S(=O)(=O)c2cccs2)CC1 (stereo not given) | i
90 | O=C(CSc1ncc(S(=O)(=O)c2ccc(Cl)cc2)c(=O)[nH]1)Nc1ccc(F)c(Cl)c1 | i
91 | COc1ccc(C(=O)N2CCN(c3ncnc4c3nnn4-c3ccccc3)CC2)cc1OC | i
92 | CC(C)Oc1ccc(-c2noc(Cn3cnc4c(nnn4Cc4cccc(Cl)c4)c3=O)n2)cc1 | i
93 | CCOC(=O)C1CCCN(S(=O)(=O)c2cn(C)nc2C)C1 (stereo not given) | i
94 | Cc1ccc(-c2cc3c(=O)n(CC(=O)N4CCCc5ccccc54)ccn3n2)cc1 | i
95 | CS(=O)(=O)NCC1CCN(C(=O)c2ccncc2)CC1 | i
96 | Cc1cc(NC(=O)C2CCN(C(=O)c3cnn(-c4ccccc4)n3)CC2)no1 | i
97 | O=C(CN1N=NC2C(=O)N(c3ccc(Cl)cc3)C(=O)C21)Nc1ccccc1Cl (stereo not given) | i
98 | COc1ccc2nc(-n3nc(C)cc3NC(=O)c3ccc4c(c3)OCCO4)sc2c1 | i
99 | Cc1cn2c3c(=O)n(Cc4ccccc4)c(=O)n(C)c3nc2n1-c1ccccc1N | i
100 | CCOc1cc(Cl)c(S(=O)(=O)NCCN2CCOCC2)cc1Cl | i
101 | COc1ccc2cccc(NC(=O)c3cc(-c4cc(OC)c(OC)c(OC)c4)n[nH]3)c2n1 | i
102 | COc1ccc(CNC(=O)c2c[nH]c3ccc(F)cc3c2=O)cc1 | i
103 | O=c1cc(-c2cc3cc(Br)ccc3oc2=O)c2ccc(O)cc2o1 | i
104 | CC(=O)NC1=NN(C(C)=O)C2(S1)C(=O)N(CCCOc1ccccc1C)c1ccccc12 (stereo not given) | i
105 | Cc1cc(=S)n2[nH]cc(-c3ccccc3)c2n1 | i
106 | OCc1ccc(-c2nc(-c3ccc4c(c3)OCO4)c(-c3ccccn3)[nH]2)cc1 | i
107 | COc1ccccc1-n1c(C)c(C)n2c3c(=O)n(CC(=O)OCc4ccccc4)c(=O)n(C)c3nc12 | i
108 | COc1ccccc1-c1coc2c3c(ccc2c1=O)OCN(CC1CCCO1)C3 (stereo not given) | i
109 | O=C(Cn1cnc(-c2nc(-c3cccs3)cs2)c1)Nc1ccc(F)c(Cl)c1 | i
110 | CCOc1ccc(C(=O)Nc2ccc(C)c(N3CCCC3=O)c2)cc1OCC | i
111 | Cc1c(Cl)cccc1S(=O)(=O)NCC#CCN1CCCC1 | i
112 | O=C(CCc1nc2sc3c(c2c(=O)[nH]1)CCCCC3)NCCc1ccc(Cl)cc1 | i
113 | CC(=O)c1sc(NC(=O)c2ccc(N3C(=O)c4ccccc4C3=O)cc2)nc1C | i
114 | Cc1c(CNC(=O)Cn2cnc3ccccc3c2=O)sc2nc(-c3ccc(F)cc3)cn12 | i
115 | COc1ccccc1C1C(C(=O)c2cccs2)=C(O)C(=O)N1c1cc(C)on1 (stereo not given) | i
116 | O=C(NC(CO)C(O)c1ccc([N+](=O)[O-])cc1)C(Cl)Cl (stereo not given) | i
117 | Cc1ccc(NC(=O)N2CCN(c3ccc(-n4cccc4)nn3)CC2)cc1Cl | i
118 | COCCN(Cc1ccncc1)C(=O)NCCOc1ccccc1 | i
119 | COc1ccc(OC)c(-c2cc(C(=O)NCc3cnn4ccccc34)n(C)n2)c1 | i
120 | Cc1nccn1-c1ncc(NC(=O)c2cccs2)cn1 | i
121 | Cc1ccc(NC(=O)CN2CC(c3nc(-c4ncccn4)no3)C2)cc1Cl | i
122 | CC(CCc1ccccc1)NC(=O)CCCn1c(=S)[nH]c2cc3c(cc2c1=O)OCO3 (stereo not given) | i
123 | Cc1cc(=O)n2c(CCNC(=O)c3ccccc3C(F)(F)F)csc2n1 | i
124 | COc1ccc(Cl)cc1NC(=O)N1CCC(c2nnc(C3CC3)s2)CC1 | i
125 | CC(=O)N1CCN(C(=O)C(=O)NCCC(O)c2cccc3ccccc23)CC1 (stereo not given) | i
126 | CC(C)NCC(O)COc1ccc(CCOCC2CC2)cc1 (stereo not given) | i
127 | CCN(CC)C(=O)c1cnc2nc(C)ccc2c1Nc1ccc(S(C)(=O)=O)cc1 | i

# Source: PubChem BioAssay (Vanderbilt University)
